Rango complex inh – qHTS Assay for Inhibitors of Rango (Ran-regulated importin-beta cargo) - Importin beta complex formation; AID 540263, 2011; Potency, µM (highest dose often 92.2 µM), without a hit: at the highest dose inhibition of complex formation; Rango CFP/YFP FRET sensor + importin beta, 45 min; hit rate 0.031% among 340,000; Importin subunit beta-1 (Homo sapiens), Q14974; active = rising FRET ratio curve, often small or poorly fitted; inconclusive = mostly compound fluorescence or quenching in the first reads; inactive = flat curves in all reads;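 also: potency is read from the fitted curve at half-maximal effect; 0% = DMSO wells and 100% = buffer wells lacking importin beta; nearly all actives have a fitted effect of over 15% in size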
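Inhibition scored from the CFP 486 nm/YFP 530 nm FRET ratio 45 min after adding 0.125 microM importin beta to 50 nM Rango biosensor preincubated 5 min with compound (room temperature, PBS with DTT, Tween-20, BSA). No-importin wells as positive control.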
GLA inh pH 4.5 – qHTS Assay for Inhibitors of Human alpha-Galactosidase at pH 4.5; activity change, negative = inhibition, % at 105 µM; Alpha-galactosidase A (Homo sapiens), P06280; purified enzyme, 4-MU-alpha-Gal fluorescence, pH 4.5; 230,000 tested, under 10 active; AID 1467, 2008; inconclusive = small, poorly fitted or top-dose-only inhibition, or a rising curve; inactive = flat fitted curve, though single readings scatter; no compound was filed as active;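 also: 0% = full activity with enzyme and -100% = basal without enzyme; dose as in the result columns while the protocol names 77 µM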
Target sequence (P06280 whole entry, looked up): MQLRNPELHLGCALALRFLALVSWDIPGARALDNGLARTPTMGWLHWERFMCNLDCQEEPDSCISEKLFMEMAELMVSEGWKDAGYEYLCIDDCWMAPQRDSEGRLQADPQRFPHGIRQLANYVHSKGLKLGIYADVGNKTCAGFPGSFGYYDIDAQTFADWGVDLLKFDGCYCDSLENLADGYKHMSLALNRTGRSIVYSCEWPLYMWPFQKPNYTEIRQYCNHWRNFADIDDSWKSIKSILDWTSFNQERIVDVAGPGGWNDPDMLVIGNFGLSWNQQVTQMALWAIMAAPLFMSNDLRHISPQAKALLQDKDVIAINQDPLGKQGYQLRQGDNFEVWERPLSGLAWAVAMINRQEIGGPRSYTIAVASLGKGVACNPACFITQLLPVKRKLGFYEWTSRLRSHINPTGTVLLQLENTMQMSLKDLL
miR-21 reporter – qHTS Assay for Modulators of miRNAs and/orActivators of miR-21; HeLa miR-21 FLuc reporter, luciferase, 48 h; Potency, µM (highest dose often 38.3 µM), for the others: top-dose reporter change, positive = more light; 340,000 tested, under 10 active; AID 2288, 2010; active = well fitted rising curve with a large enough effect; inconclusive = small, poorly fitted or top-dose-only effect; inactive = no such curve, though single readings can be large or run the other way;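 also: % of control where 0% means no effect; miR-21 action dims this reporter so a rising signal means less miR-21 action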
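Compounds were titrated across several concentrations (up to approximately 40 uM) and incubated 48 hours with HeLa miR-21-FLuc reporter cells (miR-21 target sequence downstream of FLuc, endogenous miR-21). Readout was firefly luciferase luminescence after lytic detection reagent.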
Rango release inh – qHTS Assay for Inhibitors of RanGTP induced Rango (Ran-regulated importin-beta cargo) - Importin beta complex dissociation | Snurportin-1 (Homo sapiens) + GTP-binding nuclear protein Ran (Homo sapiens) + Importin … | Biochemical FRET Rango-importin beta, RanGTP-induced dissociation | Potency, µM (top dose mostly 46.1 µM), for inactives: top-dose activity change, negative = inhibition | hit rate 0.071% among 340,000 | AID 540253, 2011; active means falling FRET ratio curve, often poorly fitted, with flat reads before Ran was added; inconclusive means other falling curves, or compound fluorescence or quenching; inactive means flat or rising ratio curve;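 also: potency is read from the fitted curve at half-maximal effect; % of control where 0% means no effect; nearly all actives have a fitted effect of over 45% in size; -100% = wells without RanGTP and RCC1; the record marks most hits as doubtful in a second field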
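Two FRET readings bracket the reaction: one 5 min after compound meets Rango–importin beta, another 45 min after RanGTP-RCC1 (0.6 uM Ran, 0.2 uM RCC1, 2 mM GTP) is added. Only the second defines inhibition.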
Starred values were filed as active, the others as inactive; ? = inconclusive; nt = not tested or not shown; & = joins results of further samples.

Rango complex inh	GLA inh pH 4.5	miR-21 reporter	Rango release inh	SMILES
0.0%	5	0%	?	Cc1ccc2c(c1)C(=O)CCCCC(=O)N2
-1.0%	-1	-4%	-17%	Cc1cc2c(OCC(O)CN3CCCC3)cccc2[nH]1 (stereo unspecified)
-1.0%	-5	25%	10%	CC1=CC(C)(C)N(S(=O)(=O)c2ccc(C)cc2)c2cc(C)ccc21
?	nt	nt	-12%	CC(NS(=O)(=O)c1ccc(Cl)c(Cl)c1)C(=O)Nc1cccnc1 (stereo unspecified)
-3.3%	-6	-9%	-22%	O=C(CCc1ccccc1)n1nc(-c2ccccc2)nc1NCc1ccco1
0.3%	nt	nt	-17%	COc1ccc(S(=O)(=O)Nc2cccc3c2O[C@H](CN(C)C(=O)NC(C)C)[C@@H](C)CN([C@H](C)CO)C3=O)cc1
-0.4%	-4	8%	-8%	COC(=O)c1ccc(NC(=O)C(=O)N2CCN(C(=S)Nc3ccc(C)cc3)CC2)cc1
-0.5%	nt	-5%	-5%	CC(C)Cc1nnc(NS(=O)(=O)c2ccc([N+](=O)[O-])cc2)s1
0.5%	nt	-1%	1%	Cc1nn(S(=O)(=O)c2ccccc2)c(C)c1S(=O)(=O)N1CCOCC1
-1.5%	nt	nt	-2%	O=C(NCCC(=O)N1CCN(S(=O)(=O)c2ccccc2)CC1)c1ccc(Br)cc1
2.4%	-1	-4%	-3%	Cn1cnc(S(=O)(=O)Nc2cc(-c3ccc(Cl)cc3)nn2C)c1
-4.2%	6	-1%	-9%	CCC(=O)N1CCc2cc(S(=O)(=O)CCC(=O)O)ccc21
1.9%	3	-1%	11%	CC(C)(C)C(=O)CSc1nccc(=O)[nH]1
?	-2	-9%	-14%	CCOc1ccc(S(=O)(=O)Nc2ccc(C(=O)N/N=C/c3c(C)nn(-c4ccccc4)c3N3CCCC3)cc2)cc1
0.3%	0	-7%	-10%	NNc1nnc2c3cc(F)ccc3n(Cc3ccccc3)c2n1
4.4%	nt	-7%	0%	O=C(COC(=O)CSc1ccc(F)cc1)NCC1CCCCC1
-2.6%	2	-9%	18%	O=C1N=C2SCCN2/C1=C\c1c(Cl)cccc1Cl
-0.1%	4	-6%	-11%	O=C(CSc1nnc(Cn2c(=O)sc3ccccc32)n1-c1ccccc1)N1CCOCC1
-1.1%	4	-7%	1%	CN(C)C(=O)c1cc2cc([N+](=O)[O-])ccc2s1
2.1%	-2	-7%	-7%	CON/C=C(\C=Nc1ccc(Cl)cc1Cl)c1ncc(C(F)(F)F)cc1Cl
1.9%	0&1	-4%&-9%	2%	COc1cc(C2C(C(=O)c3ccc(C)o3)=C(O)C(=O)N2Cc2cccnc2)ccc1O (stereo unspecified)
0.7%	-1	-14%	-2%	CC(=O)NCc1ccc(S(=O)(=O)N/N=C/c2ccc(Br)cc2)cc1
-0.8%	-1	-5%	-8%	O=C(Nc1cccc(C(F)(F)F)c1)c1cc2c(=O)c3ccccc3oc2nc1C(F)(F)F
-1.7%	-4	-1%	33%	COC(=O)C(C(=O)OC)c1ncccc1[N+](=O)[O-]
-1.9%	nt	nt	-4%	COc1ccc(C=C(C(=O)O)c2ccc(OC)cc2)cc1
?	nt	nt	?	Cc1ccc(Nc2[nH]c(=O)c3ccccc3c2C(=O)c2ccccc2)cc1
-0.9%	4	0%	0%	CCOC(=O)CSc1nnnn1-c1cc(OC)c(Cl)cc1OC
-1.8%	nt	1%	-14%	O=C1CCCN1Cc1ccccc1
-0.5%	-1	6%	8%	CCO[C@@H]1OC(C(=O)NCc2nc3ccccc3[nH]2)=C[C@H](c2ccccc2)[C@H]1CCCO
3.7%	nt	nt	23%	O=C1COc2cc(O)ccc21
?	5	-6%	?	CCOC(=O)c1c(C)oc2c1c(C=NCCC(=O)O)c(O)c1ccccc12
-1.4%	nt	-50%	-6%	O=C(Nc1cccc(/C=C/c2ccccn2)c1)c1cc(Cl)ccn1
-1.2%	nt	0%	1%	Cc1ccc(OCC(=O)NCCNC(=O)COc2ccc(C)cc2)cc1
0.4%	5	-19%	7%	O=C(NCc1ccc(F)cc1)C(=O)NCC1OCCN1S(=O)(=O)c1cccs1 (stereo unspecified)
-1.6%	nt	nt	-9%	CC(=O)c1sc(NC(=O)CSCc2c(C)noc2C)nc1-c1ccccc1
-2.8%	-4	5%	6%	Cc1cc(C)nc(N/N=C/c2cn[nH]c2-c2ccc(F)cc2)n1
4.9%	2	-3%	-8%	COCCCNC(=O)Cn1ncc2c(=O)oc3ccccc3c21
2.4%	4	0%	14%	O=C(Sc1ccc(Cl)cc1)c1cccc(Cn2cc(C(F)(F)F)ccc2=O)c1
1.4%	4	18%	1%	O=C(Nc1ccc(F)cc1)Nc1csc2ccccc12
-0.2%	-6	-3%	1%	COc1cc(CN2CCN(C(=O)CC(C)C)CC2)cc(OC)c1O
-7.1%	nt	nt	17%	O=C(Cn1ccc(NC(=O)OCc2ccccc2)nc1=O)NCc1ccccn1
1.4%	-1	-1%	-6%	CC(C)(C)NC(=O)C1N(c2cccnc2)C(=O)C2C(C(=O)Nc3ccccc3)C3(C)C=CC21O3 (stereo unspecified)
-4.5%	-8	?	1%	Cc1ccc(NC(=O)CSc2nc3ccccc3c(=O)n2CCCN2CCCCC2)cc1Cl
?	-4	-23%	?	N#C/C(=C\c1cccc(O)c1)c1nc2ccccc2o1
-2.3%	nt	nt	6%	CCC(=O)c1ccc(OCC(=O)OCC(=O)NC2CCCCCC2)cc1
?	-26	-13%	?	Cc1cc(NS(=O)(=O)c2ccc(NC(=O)c3cc4c(=O)n5ccccc5nc4s3)cc2)nc(C)n1
-3.3%	5	0%	14%	Cc1ccc(C(=O)COC(=O)C2C3C=CC(C3)C2C(=O)OCC(=O)c2ccc(C)c(C)c2)cc1C (stereo unspecified)
0.9%	-4	-3%	2%	O=C(CN1CCS(=O)(=O)CC1)NNC(=O)C1CCCCC1
-2.1%	nt	5%	1%	O=c1[nH]c2ccccc2cc1CN(CC1CCCO1)S(=O)(=O)c1ccccc1 (stereo unspecified)
-0.1%	-7	16%	13%	O=S(=O)(c1ccc(OCC(O)CN2CCN(c3ccccc3Cl)CC2)cc1)N1CCOCC1 (stereo unspecified)
-0.9%	nt	nt	-13%	O=C(C[C@H]1C[C@H](C(=O)N2CCOCC2)[C@@]2(CCC3CCCC3)c3[nH]c4cc(-c5ccco5)ccc4c3CCN2C1=O)NCCN1CCOCC1
0.0%	-7	-6%	-23%	COC(=O)c1sc2nc[nH]c(=O)c2c1C
-2.0%	1	0%	-18%	Cc1ccc(C)c(C(=O)N(C)CC(=O)Nc2ccccc2C(F)(F)F)c1
-1.3%	nt	-1%	10%	CCC(Oc1ccc(C)c(C)c1)C(=O)N1CCCN(C)CC1 (stereo unspecified)
0.0%	6	-1%	6%	CCCCN(C(=O)/C=C/c1ccco1)c1c(N)n(Cc2ccccc2)c(=O)[nH]c1=O
-1.9%	5	0%	0%	CCC(COC(C)=O)Nc1nc2c([nH]1)c(=O)n(C)c(=O)n2C (stereo unspecified)
0.2%	-9	-6%	0%	O=C(O)/C(=C\c1ccccc1Cl)c1ccc(S(=O)(=O)N2CCCCC2)s1
1.4%	-20	0%	9%	O=C(c1ccc(S(=O)(=O)N2CCOCC2)cc1)N1CCN(c2cccc(Cl)c2)CC1
3.2%	0	-10%	10%	Cc1noc(C)c1C(=O)OCC(=O)Nc1ccccc1C(=O)NC(C)c1ccccc1 (stereo unspecified)
-0.9%	nt	3%	-17%	COc1ccccc1C1C(C(=O)c2ccco2)=C(O)C(=O)N1c1cc(C)on1 (stereo unspecified)

Additional compounds
Rango complex inh	GLA inh pH 4.5	miR-21 reporter	Rango release inh	SMILES
4.2%	0	-39%	-13%	O=C(N/N=C/c1ccc(OC(=O)c2ccco2)cc1)c1ccccn1
-0.3%	-12	-17%	-2%	COc1ccc(C2=NCC(CSc3nnc(-c4ccc5c(c4)OCO5)o3)S2)cc1 (stereo unspecified)
0.0%	-3	-1%	2%	O=C(NNC(=S)NCCCN1CCOCC1)c1ccncc1
0.3%	-2	-3%	4%	O=C(CCc1nnc(CCCCc2ccccc2)o1)NC1CCCC1
?	-4	-7%	?	CCN(CC)c1ccc(/C=C(\C#N)C(N)=S)cc1
-4.0%	nt	5%	-20%	COC(=O)c1ccc(CN2CCCC(CO)(Cc3ccc(F)cc3F)C2)cc1 (stereo unspecified)
-3.4%	-12	4%	-7%	CCOc1ccc(NC(=O)CSCc2cnn(-c3ccccc3)c2-n2cccc2)cc1
-0.9%	nt	nt	-10%	O=C(CNC(=O)c1cc(-c2ccccc2)nn1-c1ccccc1)Nc1ccccc1Br
8.6%	0	-21%	?	COc1cc(/C=C2\SC(c3ccc(C)cc3)=NC2=O)ccc1O
?	nt	nt	?	O=C(NCc1ccccc1Br)c1cccc2c1C(=O)c1ccc(N3CCC(Cc4ccccc4)CC3)cc1S2(=O)=O
-5.8%	6	5%	0%	O=C(/C=C1\SC(=O)N(CC(=O)Nc2ccc(Cl)cc2)C1=O)Nc1ccc(F)cc1
-7.7%	5	-1%	13%	CCCc1nc(NCc2ccc3c(c2)OCO3)c2nnn(Cc3ccccc3Cl)c2n1
-4.9%	-3	-67%	3%	N#Cc1nc(COc2ccccc2F)oc1N1CCCCCC1
?	nt	-2%	-29%	CN(C)c1ccc(/C=C(\NC(=O)c2ccccc2)C(=O)NCc2cccnc2)cc1
-1.4%	2	-1%	5%	O=C(CNC(=O)c1ccc([N+](=O)[O-])cc1)N/N=C\c1ccc(OC(=O)c2ccccc2)cc1
nt	3	-8%	nt	COc1ccc(CC(NC(C)=O)C(=O)NC2CCN(c3c(Cc4ccccc4)c(C)nc4ncnn34)CC2)cc1OC (stereo unspecified)
-0.5%	nt	nt	1%	CCOC(=O)c1c(C)[nH]c(C(=O)COC(=O)C2CC2)c1C
4.9%	nt	2%	-2%	Cc1ccc2[nH]c(=O)c(CC(=O)O)c(-c3ccccc3)c2c1
-2.0%	1	1%	1%	Cc1ccc(Cl)cc1NC1=NC(=S)N(C(C)C)C12CCCCC2
0.3%	-6	-58%	6%	CCc1ccc(Oc2cc(C)nc(N)n2)cc1
0.0%	-9	-10%	16%	CC1(C)OC(=O)C(=NNc2ccccc2)C(=O)O1
-1.6%	4	0%	16%	CCn1c(=O)cc(SCC(=O)NCc2cccnc2)c2ccccc21
?	-5	1%	12%	CCOCC(=O)Nc1cc(C(=O)OC)cc(C(=O)OC)c1
0.9%	-12	-1%	-3%	FC(F)(F)c1cccc(NC(=S)N(CCCN2CCCC2)Cc2cccn2Cc2ccc(Cl)cc2)c1
1.5%	-4	-7%	1%	COc1ccc(N=C2SCC(=O)N2c2ccc(OC)cc2)cc1
2.6%	1	-9%	15%	Cc1ccc(-c2csc3ncnc(-n4nnc5ccccc54)c23)cc1C
-0.1%	nt	1%	19%	C=CCOc1ccccc1CN1CCC(n2nccc2NC(=O)c2ccccc2)CC1
-2.8%	-7	-7%	1%	CCOc1ccc(NC(=O)Nc2ccc3nccnc3c2)cc1
-0.2%	1	-6%	9%	COC(=O)c1ccc(SCC(=O)NC2CCCC2)c([N+](=O)[O-])c1
-1.0%	-1	1%	2%	Cc1ccc(-c2nnc(SCC(=O)NCC3CCCO3)n2C)cc1 (stereo unspecified)

High-throughput results as filed in PubChem BioAssay.

Only part of the results is shown, so the mix of outcomes need not match the whole.
